KCNQ2 block – KCNQ2 channel blockers in CHO-K1 cells – cell-based, FluxOR thallium flux, B-score, primary screen (AID 2156); 20 min; active compounds read low; only compounds with negative scores are shown here; some inactives read as strong as hits; B-score at 10 µM; 310,000 tested, 1.1% active;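 active means fluorescence ratio B-score at most minus 3 library SDs, with starting brightness B-score within 2 library SDs, cut at about -5.5 in these data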
Target sequence (O88943 whole entry, looked up): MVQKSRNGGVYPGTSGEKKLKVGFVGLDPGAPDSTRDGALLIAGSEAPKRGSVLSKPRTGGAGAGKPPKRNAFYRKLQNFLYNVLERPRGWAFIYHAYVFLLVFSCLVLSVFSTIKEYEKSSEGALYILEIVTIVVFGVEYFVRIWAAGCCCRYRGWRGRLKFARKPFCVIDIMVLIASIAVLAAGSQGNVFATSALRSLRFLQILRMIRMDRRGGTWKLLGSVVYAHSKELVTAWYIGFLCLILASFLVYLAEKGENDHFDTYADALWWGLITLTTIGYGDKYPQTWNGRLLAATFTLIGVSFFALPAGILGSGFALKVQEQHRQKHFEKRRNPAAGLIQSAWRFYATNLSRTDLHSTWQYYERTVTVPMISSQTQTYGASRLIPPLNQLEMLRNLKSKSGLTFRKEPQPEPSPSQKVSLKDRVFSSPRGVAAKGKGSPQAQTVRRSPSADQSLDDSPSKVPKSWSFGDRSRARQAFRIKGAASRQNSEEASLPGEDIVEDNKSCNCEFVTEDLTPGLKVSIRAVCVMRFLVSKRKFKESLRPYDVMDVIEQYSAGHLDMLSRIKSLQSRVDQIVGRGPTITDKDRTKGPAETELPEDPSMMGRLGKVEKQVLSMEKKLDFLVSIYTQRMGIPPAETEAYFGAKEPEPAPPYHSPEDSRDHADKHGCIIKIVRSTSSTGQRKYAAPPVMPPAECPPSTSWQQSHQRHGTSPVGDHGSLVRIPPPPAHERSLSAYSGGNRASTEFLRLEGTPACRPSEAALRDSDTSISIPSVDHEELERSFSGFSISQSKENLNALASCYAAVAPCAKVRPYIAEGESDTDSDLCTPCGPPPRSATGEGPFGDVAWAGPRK
KCNQ2 block baseline – further read-out of KCNQ2 block, marked with its call; B-score; measured here: initial fluorescence intensity artifact check;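 brightness before thallium and not channel activity; 0 = typical well and far values either way flag optical interference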
* hit, by the source's call; i = inactive.

KCNQ2 block	KCNQ2 block baseline	SMILES
i	-1.4	CCn1c(O)c(C=Nc2ccccc2)sc1=O
i	0.97	COc1ccc(CC(=O)c2ccccc2C(=O)O)cc1
i	-0.42	COc1cc(C(=O)OCC(=O)NCCCc2ccccc2)ccc1OCC(C)C
-9.88*	-0.06*	CC1(C)C(C=C(Cl)Cl)C1C(=O)N/N=C/c1ccccc1F (stereo unspecified)
i	1.44	O=S(=O)(c1ccc(F)cc1)n1ccc(-c2cccc(OCc3c(F)cccc3Cl)c2)n1
i	1.39	Cn1cc(Cl)c(C(=O)N2CCN(c3ncccn3)CC2)n1
i	0.53	CCc1ccc(C2C(C#N)=C(N)N(N3CCOCC3)C3=C2C(=O)CC(C)(C)C3)s1 (stereo unspecified)
i	-0.05	CCOc1cccc(C(=O)N(Cc2cccc(F)c2)C2CCS(=O)(=O)C2)c1 (stereo unspecified)
i	1.96	COc1ccc(NC(=O)COC(=O)Cc2ccccc2[N+](=O)[O-])cc1OC
i	-1.14	CCn1c(CNC(=O)c2cccs2)n[nH]c1=S
i	-0.19	CC1CCC(C(C)C)C(OC(=O)COC(=O)c2cccn2C)C1 (stereo unspecified)
i	1.54	CCN(CC)CCCNC(=O)c1cc(-c2ccccc2)c(N2CCCCC2)s1
i	-1.45	Cc1nc(C2CC(=O)OC23CCCCC3)cs1 (stereo unspecified)
i	-1.3	Cc1cccc(C(=O)NCC(=O)N(C)CC(=O)Nc2ccc(N3CCOCC3)cc2)c1
i	2.32	CCOC(=O)CC(=O)CSc1nc(N)c(C#N)c(-c2ccc(Cl)cc2)c1C#N
i	-0.12	COc1cccc(CNS(=O)(=O)c2ccc3c(c2)CC(C)N3C(=O)C2CCC2)c1 (stereo unspecified)
i	0.81	CCN(CC)C(=O)Cn1cc(C(=O)C(=O)N(CC)C2CCCCC2)c2ccccc21
i	0.02	CCCc1nc2ccccc2n1C(=S)SC
i	0.14	COc1cc(CN2CCNC(=O)C2CC(=O)NCCCN2CCOCC2)cc(OC)c1 (stereo unspecified)
i	0.81	Cc1ccc(CNS(=O)(=O)c2ccc(C(F)(F)F)cc2)n1C
i	-1.79	CCOC(=O)/C(C#N)=C/c1ccc(OC(=O)c2ccco2)c(OCC)c1
i	0.9	COc1ccc(CN2C(=O)c3cccnc3C2=O)cc1S(=O)(=O)NCc1ccccc1
i	0.31	Cn1c(=O)c(C(=O)NC2CCCCCC2)c(O)c2ccccc21
i	-0.06	Cc1ccc([N+](=O)[O-])cc1N=C(c1ccc([N+](=O)[O-])cc1)N1CCOCC1
-8.16*	0.15*	CC(C)C(NC(=O)OCc1ccccc1)C(=O)OCC(=O)N1C(C)CCCC1C (stereo unspecified)

KCNQ2 block	KCNQ2 block baseline	SMILES
i	0.01	Cc1ccccc1NC(=O)c1cc(N)ccc1N1CCCCC1
i	2.22	COc1ccc(S(=O)(=O)Nc2cc(C)on2)cc1
i	-0.46	CN(Cc1ccccc1Cl)C(=O)C1CCC(=O)N(CCc2cccc(F)c2)C1 (stereo unspecified)
i	-2.26	COc1cccc(C(=O)OCC(=O)NC(C)CCc2ccccc2)c1O (stereo unspecified)
i	-0.14	COP(=O)(OC)c1nc(-c2cccc3ccccc23)oc1NCc1ccccc1
i	1.68	COc1c(Cl)ccc(Cl)c1C(=O)OCC(=O)O
i	0.36	Oc1c(C=Nc2ccccc2Cl)[nH]c2ccccc12
i	-0.03	COc1ccccc1NC(=O)c1ccc(NC(=O)C2COc3ccccc3O2)cc1 (stereo unspecified)
i	0.26	CCCCC(CC)C(=O)NCc1ccccc1OC (stereo unspecified)
i	-0.28	CCOc1ccccc1C(=O)Nc1ccccc1-c1ccccc1
i	-0.08	O=C(NNC(=S)Nc1ccccc1)c1cc(Br)ccc1Cl
i	2.1	CN1CCN(Cc2cn(C)nc2-c2ccccc2F)CC1c1ccccc1 (stereo unspecified)
i	1.02	Cc1sc2ncnc(SCC(=O)N3CCCC(C(F)(F)F)C3)c2c1C (stereo unspecified)
i	5.17	Cc1ccc(SCC(=O)Nc2ccccc2C(=O)O)cc1
i	-0.13	Cc1cccc(C2c3[nH]c4ccccc4c3CCN2Cc2ccc(C)s2)n1 (stereo unspecified)
i	-0.41	Cc1cc(C)nc(SC2CC(=O)N(c3ccc(Br)cc3)C2=O)n1 (stereo unspecified)
i	0.36	COc1ccc(-c2cc(C(=O)NCc3ccco3)c3ccccc3n2)cc1
i	0.27	Cc1ccc2c(c1)N(CC(=O)Nc1ncccc1C)C(=O)C(C(C)C)O2 (stereo unspecified)
i	0.12	CCN(CC)CCN(C(=O)c1ccc(C(C)=O)cc1)c1nc2ccc(Cl)cc2s1
i	-0.43	Cc1cccc(OCCc2c(C)[nH]c(=S)[nH]c2=O)c1
i	-1.05	Cc1ccc(OCC(=O)N2CCN(C(=O)Cc3ccccc3)CC2)cc1
i	-0.17	Cc1ncc(C[n+]2csc(CCOC(=O)CC3C4CC5CC(C4)CC3C5)c2C)c(N)n1 (stereo unspecified)
i	0.14	Cc1ccccc1CNC(=O)c1ccccc1N
i	0.39	CCOc1ccc(S(=O)(=O)N2CCCC(C(=O)NCc3ccncc3)C2)cc1 (stereo unspecified)
i	1.13	O=C(/C=C/c1ccco1)NCc1ccco1

KCNQ2 block	KCNQ2 block baseline	SMILES
i	0.26	COc1ccc(S(=O)(=O)N2CCC3(CC2)OCCN3S(=O)(=O)c2ccc(OC)cc2)cc1
i	0.49	CCCCNC(=O)Cc1c(O)c2ccccc2[nH]c1=O
i	-1.11	CC1=C(C(N)=O)C(c2cccnc2)n2nc(-c3cccc(Cl)c3)nc2N1 (stereo unspecified)
i	0.49	COc1ccc(NC(=O)C2CCCN(c3cc(C)nc4ncnn34)C2)cc1 (stereo unspecified)
i	-0.02	Clc1ccc(-c2cc(-c3ccccn3)on2)c(Cl)c1
i	-0.32	Cc1csc(N/N=C/c2ccc(O)c([N+](=O)[O-])c2)n1
i	-0.29	O=C(N/N=C/c1c[nH]c2ccccc12)c1sc2ccccc2c1Cl
i	-2.55	CS/C(=N\S(=O)(=O)c1cccs1)Nc1cccc(Cl)c1C
i	3.01	N#Cc1c(N)sc(=S)c2c1CCCCC2
i	-0.26	CCOc1cc(C(=O)Nc2ccccc2N2CCOCC2)ccc1OCC(=O)N1CCCCC1
i	1.5	COc1ccc(S(=O)(=O)N2CCN=C2SCc2cccnc2)cc1
i	1.29	CCC(C)(C(=O)NC1CCCC1)N(Cc1cccs1)C(=O)c1ccc2c(c1)OCO2 (stereo unspecified)
i	0.46	COc1ccc(CCNC(=O)COc2ccc(S(=O)(=O)N3CCCC3)cc2)cc1
i	0.37	COC(=O)Nc1ncc(CN2CCC(c3ccccc3)CC2)s1
i	0.04	Cc1noc(C)c1C(=O)N1CCN(CCc2ccccc2)CC1
i	-1.42	NC(=O)C1CCN(C(=O)C2CCC(=O)N(C3CCCCCC3)C2)CC1 (stereo unspecified)
i	-1.41	Cc1nn(Cc2c(Cl)cccc2Cl)c(C)c1NC(=O)c1cc(C(C)C)on1
i	1.12	COCCNc1nnc(SCC(=O)NC(=O)c2ccccc2)s1
i	0.26	CCOC(=O)c1cc2[nH]c3ccccc3c2[n+](-c2ccc([N+](=O)[O-])cc2)c1C
i	0.86	COc1cc(CCC(=O)NCc2ccc(S(N)(=O)=O)cc2)cc(OC)c1OC
i	-0.47	Nc1nc(C23CC4CCC(CC(C4)C2)C3)cs1
i	-1.08	CN(CC(=O)Nc1ccc(Cl)cc1)C(=O)c1cccc(S(=O)(=O)N2CCN(Cc3ccccc3)CC2)c1
i	-0.49	N#Cc1ccc(C(=O)Nc2nc3ccccc3[nH]2)cc1
i	0.98	O=C1C(=O)N(c2cccc(Cl)c2)C(c2ccccc2[N+](=O)[O-])/C1=C(\O)c1ccccc1 (stereo unspecified)
i	0.14	CC(=O)c1ccc(S(=O)(=O)NCc2ccc(C(=O)NCC(c3ccccc3)N(C)C)cc2)cc1 (stereo unspecified)

KCNQ2 block	KCNQ2 block baseline	SMILES
i	-0.06	O=C(NCc1nc(-c2ccccc2)cs1)c1ccccc1
i	-0.62	COc1ccc(NCc2nnc(SCC(=O)NNC(=O)c3ccc(C)cc3)n2C)cc1
i	1.59	Cn1nc(CC(=O)Nc2ccc(N3CCN(C(=O)OC(C)(C)C)CC3)cc2)c2ccccc2c1=O
i	-2	O=C(NC1CCCCC1)c1nc2c(nnn2Cc2ccccc2Cl)c(=O)[nH]1
i	0.06	Cc1oc(-c2ccc(Cl)cc2)nc1CN1CCC(C(=O)NCCCN2CCCC(C)C2)CC1 (stereo unspecified)
i	-1.45	Cc1nn(Cc2ccccc2Cl)c2sc(C(=O)NCc3ccc4c(c3)OCO4)cc12
i	0.24	CC(C)C1N(C(=O)N2CCOCC2)CCN1S(=O)(=O)c1ccccc1 (stereo unspecified)
i	-0.53	CC(C)c1ccc(S(=O)(=O)N2CCN(C(=O)c3ccc(N4CCCC4)c([N+](=O)[O-])c3)CC2)cc1
i	0.43	COc1ccc(CCN=C2SCC(=O)N2Cc2ccccc2)cc1OC
i	1.84	O=C(Nc1ccc(Oc2ccsc2C(=O)O)cc1)c1ccccc1
i	-2.35	CCOC(=O)c1c(NC(=O)CN2CCN(C)CC2)sc(C(=O)Nc2ccccc2)c1C
i	0.84	CCN(CC(=O)Nc1cccc(OC)c1)CC(=O)Nc1ccc(Br)c(C)c1
i	-0.84	CC(=O)Nc1ccc(SCc2c(C)noc2C)cc1
i	0.16	O=C(Nc1ccccc1N1CCCCC1)c1ccc(OC(F)F)cc1
i	0.02	COc1ccc(C2CCCN2C(=S)Nc2ccc(C)cc2C)cc1OC (stereo unspecified)
i	-0.25	COc1cc(NC(=O)c2cc(OC)c(OC)c(OC)c2)c(OC)cc1NC(=O)CN1CCCCC1
i	0.03	CCN(c1ccccc1)S(=O)(=O)c1ccc2c(c1)CCCN2C(C)=O
i	-0.15	CCOc1ccccc1NC(=O)Nc1cccc(NC(C)=O)c1
i	0.86	C/C(CCc1ccccc1)=N\NC(=O)COc1ccccc1C
i	-0.03	CCN(C(=O)CCS(=O)(=O)c1cccc2nonc12)c1ccc(C)c(C)c1
i	-0.31	Cc1coc(C)c1C(=O)CC1(O)C(=O)Nc2cc(Cl)cc(Cl)c21 (stereo unspecified)
i	-0.73	COc1ccc(NC(=O)O/N=C/c2c(C)nn(C(C)(C)C)c2C)cc1
i	-0.52	CCOC(=O)c1c(C)oc2ccc(OCc3cc(C(=O)OC)oc3C)cc12
i	0.6	COC(=O)Nc1[nH]ncc1[N+](=O)[O-]
i	0.24	COC(=O)C(NS(=O)(=O)c1ccc(F)cc1)c1ccccc1 (stereo unspecified)

KCNQ2 block	KCNQ2 block baseline	SMILES
i	1.46	Cc1cccc(N2CCN(Cc3nc(-c4ccc(F)cc4F)oc3C)CC2)n1
i	0.32	O=S(=O)(Cc1ccccc1Cl)N1CCCC1
i	1.99	Cc1ccc(NC(=O)C2=CC(c3cccs3)=NS(=O)(=O)N2C)cc1
i	0.6	CSc1cccc(CN2CCN(Cc3ccc(F)c(F)c3)C(CCO)C2)c1 (stereo unspecified)
i	0.34	CCc1nn(CCCC(=O)Nc2ccc(C)c(C)c2)c(=O)c2cc3occc3n12
i	0.08	Cc1cccc(N2CCN(C(=O)C3COc4ccccc4O3)CC2)c1C (stereo unspecified)
i	-1.35	O=C(COC(=O)c1ccc(F)c(S(=O)(=O)N2CCCCC2)c1)NCc1ccc(F)cc1
i	0.84	COc1ccc(-c2nnn(Cc3ccccc3F)n2)cc1
i	-0.37	Cc1c(N=c2c(=O)c3ccccc3c2=O)c(=O)n(-c2ccccc2)n1C
i	-1.36	Cc1ccc(NP(=O)(c2ccc(N(C)C)cc2NC(=O)c2cccs2)N2CCOCC2)cc1Cl (stereo unspecified)
i	3.51	CC1(OC(=O)c2ccc(Cl)nc2)C(=O)C=C2C=C(C3CC3)OC=C2C1=O (stereo unspecified)
i	-0.55	CCOC(=O)c1[nH]c(C)c(C(=O)NCC2CCCO2)c1C (stereo unspecified)
i	1.21	CCOc1ccc(-c2c(C(=O)N/N=C(\C)c3cccs3)nnn2-c2nonc2N)cc1
i	0.06	Cc1ccc(OCC(=O)N2CCc3ccccc32)cc1
i	-2.47	CCCn1c(=O)c2ccccc2n2c(SCCOc3ccc(C)cc3)nnc12

Grouped by structure, those above with fluorine.
KCNQ2 block	KCNQ2 block baseline	SMILES
-9.88*	-0.06*	CC1(C)C(C=C(Cl)Cl)C1C(=O)N/N=C/c1ccccc1F (stereo unspecified)
i	1.44	O=S(=O)(c1ccc(F)cc1)n1ccc(-c2cccc(OCc3c(F)cccc3Cl)c2)n1
i	-0.05	CCOc1cccc(C(=O)N(Cc2cccc(F)c2)C2CCS(=O)(=O)C2)c1 (stereo unspecified)
i	0.81	Cc1ccc(CNS(=O)(=O)c2ccc(C(F)(F)F)cc2)n1C
i	-0.46	CN(Cc1ccccc1Cl)C(=O)C1CCC(=O)N(CCc2cccc(F)c2)C1 (stereo unspecified)
i	2.1	CN1CCN(Cc2cn(C)nc2-c2ccccc2F)CC1c1ccccc1 (stereo unspecified)
i	1.02	Cc1sc2ncnc(SCC(=O)N3CCCC(C(F)(F)F)C3)c2c1C (stereo unspecified)
i	0.16	O=C(Nc1ccccc1N1CCCCC1)c1ccc(OC(F)F)cc1
i	0.24	COC(=O)C(NS(=O)(=O)c1ccc(F)cc1)c1ccccc1 (stereo unspecified)
i	1.46	Cc1cccc(N2CCN(Cc3nc(-c4ccc(F)cc4F)oc3C)CC2)n1
i	0.6	CSc1cccc(CN2CCN(Cc3ccc(F)c(F)c3)C(CCO)C2)c1 (stereo unspecified)
i	-1.35	O=C(COC(=O)c1ccc(F)c(S(=O)(=O)N2CCCCC2)c1)NCc1ccc(F)cc1
i	0.84	COc1ccc(-c2nnn(Cc3ccccc3F)n2)cc1

Screening data as filed in PubChem BioAssay.

Not all compounds are listed. The share of hits here may be higher or lower than overall.
